Screening results as filed in PubChem.
RanGTP-Imp inh = inhibitors of RanGTP-importin-beta interaction, primary screen, biochemical, FRET, CFP-Ran, YFP-importin-beta, homogeneous; cell-free CFP-Ran/YFP-importin-beta FRET ratio; inhibition, % (concentration not given with the values); hit rate 1.1% among 300,000;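 active = most replicates above 15%; inconclusive = exactly half above 15%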;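 note: 0% = DMSO wells and 100% = Ran loaded with GDP instead of GTP; wells of about 40 µL received 100 nL stock; the first replicate is given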
T cruzi repl = blocks replication of Trypanosoma cruzi; T. cruzi beta-gal in NIH3T3, luminescence, 90 h; inhibition, % (concentration not given with the values); hit rate 1.4% among 300,000; AID 1885;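 active = mean inhibition across valid replicates above about 55%, limit read from the data; inconclusive = mean below that limit but half or more replicates reach it; inactive = mean below it, under half of replicates reach it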;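 note: signal also drops with host cell toxicity which is not excluded here; 0% = plate median of DMSO wells and 100% = zero luminescence signal; higher percent means less beta-gal luminescence so fewer parasites; stock transfer was 50 nL into about 50 µL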
A1 inh = inhibitors of the anti-apoptotic protein A1, read as caspase activation; MEF A1-2A-BIM cells, Caspase-Glo 3/7 luminescence, 3 h; percent of clofoctol response, vehicle zero; caspase activation, % (no concentration beside the values); hit rate 0.066% among 330,000; AID 2462;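 active = over half of replicate activation scores above 10%, or exactly half above 10 with the replicate mean above 10; inconclusive = replicate mean below 10 yet half the replicates above 10; inactive = over half of replicates below 10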;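 note: wells of about 30 µL received 50 nL stock; many hits fall short of the cut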
Beta cell apopt = beta cell apoptosis inhibition; INS-1E cytokine-induced death, ATP luminescence, 48 h; percent of positive-control rescue, neutral wells zero; protection from apoptosis, % (concentration not given with the values); hit rate 0.8% among 300,000; AID 435005;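 active = all replicates at 75% or more, or half of them and the mean; inconclusive = half reach 75% but not the mean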;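 note: 0% = cytokine-treated negative control wells and 100% = positive control rescue; higher means more ATP so stronger rescue from cytokine killing; wells of about 40 µL received 100 nL stock; the first replicate is given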
Vif A3G = HIV-1 Vif–A3G interaction blockers – biochemical, TR-FRET, GST-Vif 1-94, biotin-A3G peptide, dose response retest, primary screen (AID 1117319) | hit rate 0.57% among 260,000 | inhibition, %; hits with a dose series show IC50 in µM | TR-FRET GST-Vif / biotin-A3G peptide binding; higher % means a stronger effect; test concentration not given here; strong numbers were not always called active;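 active = above the screen mean plus three standard deviations and confirmed in dose response; inconclusive = results disagree or hit not tested in dose response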;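 note: Vif residues 1-94 fused to GST binding biotinylated APOBEC3G peptide 110-148; 0% = full assay without inhibitor and 100% = GST in place of GST-Vif; retest series ran down from 100 µM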
LANA-H2B inh = blocks KSHV LANA binding to histone H2A/H2B; cell-free LANA-H2A/H2B peptide, fluorescence polarization; inhibition, % (test concentration not listed); Q9QR71; hit rate 0.6% among 320,000; in the data active = inhibition mostly above about 10%, no sharp cut-off; inactive = mostly below about 6.7%;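 note: stock transfer was 7.5 nL into about 10 µL; 0% = median of vehicle wells and 100% = median of positive control wells; one replicate is shown; the record names a cut of 25% in any replicate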
Target sequence (Q9QR71 whole entry, looked up): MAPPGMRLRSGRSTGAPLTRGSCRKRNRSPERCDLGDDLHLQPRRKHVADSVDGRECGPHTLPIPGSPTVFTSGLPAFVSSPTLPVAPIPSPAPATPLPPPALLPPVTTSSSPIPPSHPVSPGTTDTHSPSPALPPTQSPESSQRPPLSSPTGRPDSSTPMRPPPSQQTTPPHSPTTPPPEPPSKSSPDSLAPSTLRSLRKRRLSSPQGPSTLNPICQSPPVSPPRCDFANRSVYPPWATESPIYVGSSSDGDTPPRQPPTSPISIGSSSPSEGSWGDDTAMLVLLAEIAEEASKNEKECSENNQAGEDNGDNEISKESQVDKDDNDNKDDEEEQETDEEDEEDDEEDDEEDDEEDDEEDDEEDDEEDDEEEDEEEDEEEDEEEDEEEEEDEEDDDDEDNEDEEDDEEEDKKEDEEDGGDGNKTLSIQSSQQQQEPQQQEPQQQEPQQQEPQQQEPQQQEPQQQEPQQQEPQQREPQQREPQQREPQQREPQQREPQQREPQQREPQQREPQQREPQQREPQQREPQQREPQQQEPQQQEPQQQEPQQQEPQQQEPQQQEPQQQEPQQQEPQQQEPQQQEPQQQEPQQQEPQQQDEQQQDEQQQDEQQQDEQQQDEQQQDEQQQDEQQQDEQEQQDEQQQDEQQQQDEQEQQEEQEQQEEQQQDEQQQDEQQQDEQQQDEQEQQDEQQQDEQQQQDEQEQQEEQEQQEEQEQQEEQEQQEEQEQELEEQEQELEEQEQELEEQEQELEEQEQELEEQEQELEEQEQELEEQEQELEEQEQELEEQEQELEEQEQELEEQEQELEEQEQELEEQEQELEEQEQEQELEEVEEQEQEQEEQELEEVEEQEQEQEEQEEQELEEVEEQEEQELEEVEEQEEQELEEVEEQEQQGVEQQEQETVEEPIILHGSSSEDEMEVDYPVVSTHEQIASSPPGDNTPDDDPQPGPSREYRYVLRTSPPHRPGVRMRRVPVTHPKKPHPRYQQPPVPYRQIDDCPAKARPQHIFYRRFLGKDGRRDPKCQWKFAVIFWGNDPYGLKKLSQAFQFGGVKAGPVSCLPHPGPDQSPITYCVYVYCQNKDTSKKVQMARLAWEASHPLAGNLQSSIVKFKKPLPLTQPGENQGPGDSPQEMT
Calb FLC = C. albicans growth modulation with fluconazole; hit rate 0.57% among 300,000; AID 1979; C. albicans CaCi-2 (fluconazole-resistant clinical isolate) + fluconazole, Alamar Blue growth, 48 h; growth inhibition, % (test concentration not listed);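 active = most replicates above 75%; inconclusive = exactly half above 75%; inactive = most below 75%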;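 note: all wells also contain fluconazole at 8 µg/ml as a sub-toxic cotreatment; 0% = median of DMSO wells and 100% = median of geldanamycin control wells; wells of about 8 µL received 7.5 nL stock; the first replicate is given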
AF4-AF9 inh = inhibitors of human MLL-AF4/AF9 interaction. P42568. AlphaScreen, biotin-AF4 peptide binding to FLAG-AF9. inhibition, % at 10 µM. hit rate 0.47% among 350,000;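 active = every replicate reaching a set inhibition limit, whatever the replicate mean, cut at about 25% in these data; inconclusive = mean inhibition reaches that limit but some replicates miss it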;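 note: 0% = plate neutral control median and 100% = total signal loss; the record names both 10 and 1 µM as test concentration; the first replicate is given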
* = called active by the depositor; ? = inconclusive; . = not tested or not shown; & = joins results of further samples. Random draw from the library; about 4.3% have a hit in one of these screens.

SMILES	RanGTP-Imp inh	T cruzi repl	A1 inh	Beta cell apopt	Vif A3G	LANA-H2B inh	Calb FLC	AF4-AF9 inh
CCOC(=O)N1CCN(C(=O)Cn2ncn3nc(-c4cccs4)cc3c2=O)CC1	9.6	3	-0.6	-9	-2%	4.4	3	.
COc1ccc(CCN(C)C(=O)C2CCN(Cc3ccc(C)cc3)CC2)cc1OC	-0.4	11	0.1	-3	-5%	-0.3	?	-1.7
O=C(Nc1nc(-c2ccccc2)cs1)c1ccco1	0.0	27	-0.4	2	21%	-1.4	-19	0.6
Oc1c(C=Nc2ccccc2)sc2ccccc12	16*	16	-6.7	-1	-7%	-0.8	16	13
O=C(O)CSc1nnc(COc2ccc(Br)cc2)n1-c1ccccc1	-4.0	-8	0.2	.	.	4.6	0	0.2
Cc1ccccc1NCCNc1ccccc1C	-9.2	7	-2.0	-5	4%&2%	2.2	-12	.
CSCCC(NC(=O)c1ccccc1Cl)C(=O)N1CCCCCCC1 (stereo not given)	.	.	0.7	-5	-8%	0.1	.	-1.1
O=C(c1ccc(Cl)cc1)N1CCN=C1c1ccccc1	?	3	-0.2	-7	-8%	-0.5	-7	1.9
Cc1ccc(S(=O)(=O)NC(C)C(=O)NC(C)c2cccs2)cc1 (stereo not given)	2.7	-1	0.3	4	.	2.8	0	-4.3
CCN(CC)CCNC(=O)c1c(C)oc2cc(Br)c(OC)cc12	.	.	-0.1	2	2%	-2.1	.	.
COc1ccc2c(=O)c3c(=O)n(CCc4ccccc4)c(C(C)C)nc3oc2c1	11	1	0.2	.	-16%	0.4	-1	-2.1
CC(=O)c1c(C)oc2ccc(NS(=O)(=O)c3ccc(C)cc3)cc12	?	1	0.0	9	-8%	1.4	-7	2.4
Cc1cc(=O)oc(C)c1C(=O)NCCCN1CCN(c2ccc(F)cc2)CC1	1.3	31	-0.7	3	-1%	-4.5	-16	.
CCOc1ccc(NC(=O)c2cc3cc4ccc(C)cc4nc3o2)cc1	2.7	12	-0.3	2	-4%	7.0	-13	.
Cn1c2ccccc2c(=O)c2c(=O)n(Cc3ccco3)c(-c3ccc(Cl)cc3Cl)nc21	-0.4	64*	-1.1	1	-148%	3.7	33	.
CC(=O)N1CCN(CC(=O)Nc2c(Cl)cccc2Cl)CC1	-3.6	-13	0.7	-1	-4%	0.3	3	.
OC(COc1cccc2ccccc12)CN1CCN(c2ccccc2)CC1 (stereo not given)	1.7	-11	0.3	-3	21%	-3.5	-6	0.9
COc1ccccc1CNC(=O)C1CC2Cn3c(nc4ccccc43)C2N1C (stereo not given)	2.3	-6	-1.1	-5	-2%	-7.9	-9	.
CC1(C)CC(=O)c2cc(O)ccc2O1	?	-1	0.5	5	-4%	-7.1	-2	-0.2
COc1ccc(C(=O)Nc2ccc(OC)c([N+](=O)[O-])c2)cc1Br	-4.4	27	-0.1	2	-2%	-4.7	3	1.4
O=C(c1ccco1)N(Cc1ccc([N+](=O)[O-])cc1)c1ccc(Br)cc1	4.1	16	0.8	4	-3%	3.9	22	.
Cc1cc(=O)oc2cc(Oc3ncccn3)ccc12	-0.5	-8	0.0	-2	-1%	-2.6	-6	.
COc1cc2[nH]c(=S)n(Cc3ccc(F)cc3)c(=O)c2cc1OC	4.0	-21	0.9	22	-43%	2.1	6	-3.4
Cc1cccc(CN2CCN(C(c3ccccc3)c3ccc(Cl)cc3)CC2)c1 (stereo not given)	2.8	18	0.0	61	?	-4.4	.	4.7&0.3
COC(=O)NNC(=O)CCCOc1ccc(Cl)cc1Cl	-3.7	-8	0.0	5	-1%	-3.0	10	-30
O=C(NCc1ccccc1Cl)c1ccc(Br)o1	-0.8	-3	-0.2	0	0%	3.0	-15	-0.8
C=CCN1C(=O)/C(=C2\SC(N3CCOCC3)=NC2=O)c2cc(Br)ccc21	-0.1	15	-0.7	8	0%	19*	11	.
N#C/C(=C\c1cn[nH]c1-c1ccccc1Br)C(=O)O	-0.9	-20	-0.1	0	7%	-0.7	1	-1.0
COc1ccc(CCNC(=O)COC(=O)c2ccc[nH]c2=O)cc1	-1.2	9	0.3	-1	3%	-5.4	-5	.
CCCn1c(C)cc(-c2csc(NC(=O)CCc3nc4ccccc4c(=O)[nH]3)n2)c1C	-4.1	5	0.5	.	-7%	4.6	2	1.6
CCNC(=S)N1CCN(S(=O)(=O)c2cccc(C(F)(F)F)c2)CC1	0.6	1	-0.6	-10	-1%	1.5	13	.
CC(C)(C)Cc1nnc(NS(=O)(=O)c2ccc(F)cc2)s1	2.3	-12	1.5	-2	-5%	4.3	4	.
COc1cccc(NC(=O)CCC2CCN(C(=O)c3sccc3C)CC2)c1	?	0	-0.1	14	.	-0.5	-2	0.3
O=C(CCc1nc2sc3c(c2c(=O)[nH]1)CCCC3)NCCOc1ccccc1	-5.0	3	-0.4	-1	.	-5.1	9	-0.7
C=CC[C@@H](CC(=O)N[C@@H](CO)Cc1ccccc1)C(=O)N[C@H](COC(=O)[C@@H](CC=C)Cc1ccc(F)cc1)Cc1c[nH]c2ccccc12	.	.	1.9	-11	.	-0.8	.	-1.3
Cn1nc(-c2ccc(C(=O)NCC3CCCO3)cc2)c2ccccc2c1=O (stereo not given)	7.6	2	-0.4	1	-9%	7.5	1	.
Cc1cc(C)n2nc(-c3cccnc3)nc2n1	6.3	-12	-0.9	-6	6%	-5.9	11	.
Cc1ccc(S(=O)(=O)N2CCC(C(=O)OC(C)C(=O)NC3CCCCC3C)CC2)cc1 (stereo not given)	.	.	1.9	-3	-5%	11	.	-2.5
COc1cccc(N/C=C/c2onc(C)c2[N+](=O)[O-])c1	1.3	6	-5.6	-2	.	-5.4	-9	.
CC(NC(=O)NC1CCCCC1)C(c1cccs1)N1CCN(c2ccccc2)CC1 (stereo not given)	-1.7	-11	0.8	6	?	-2.7	4	17
COc1ccc(-n2c(=O)cc(N3CCN(c4ccccc4OC)CC3)[nH]c2=O)cc1	.	.	0.0	2	?	-0.9	.	.
CC(C)(C)c1cc(NCc2ccccn2)n2ncc(-c3ccc(Cl)cc3)c2n1	2.2	23	-0.6	7	.	2.4	-2	-5.4
CCOC(=O)C1CCN(C(=O)c2cccc(NC3=NC4CS(=O)(=O)CC4S3)c2)CC1 (stereo not given)	-0.8	-1	0.2	-1	.	2.5	-1	7.6
Cc1ccc(N(CC(=O)NCc2ccco2)C(=O)CCC(=O)Nc2nccs2)c(C)c1	2.6	3	0.6	-6	.	-2.0	-5	3.1
O=C(CSCc1ccccc1Cl)NN=C1CCCCCC1	1.3	-9	-1.0	0	8%	-0.4	7	.
CCCCCCc1ccc(N2C[C@H](C)[C@@H](CC(=O)NCc3ccccc3)C2=O)cc1	-2.0	-27	-0.7	-4	.	4.1	-13	1.2
O=C(CCCn1c(=O)[nH]c2ccsc2c1=O)N1CCCCC1	-0.4	-8	0.2	-4	4%	-0.7	-1	.
CCS(=O)(=O)N1Cc2ccccc2CC1C(=O)NCCc1ccccc1 (stereo not given)	-1.3	0	1.1	4	-6%	-1.5	-3	-3.8
Cc1sc(NC(=O)CN(Cc2ccccc2)C(=O)C2CC2)c(C(N)=O)c1C	6.4	5	0.7	1	3%	-5.8	-8	0.0
CCOC(=O)C1(Cc2ccccc2)CCCN(Cc2ccc(OCC)c(CO)c2)C1 (stereo not given)	-3.0	0	0.4	-3	-5%	-0.8	-8	3.1
COc1cccc(NC(=S)N(CCN(C)C)C(C)c2ccncc2)c1 (stereo not given)	-0.5	-4	-0.4	1	1%	-1.1	5	-1.2
CN(c1ccccc1)c1ncccn1	3.8	-11	0.4	2	.	1.9	-3	-1.1
CCCc1nnc(NC(=O)CCC(=O)NCCc2ccc(OC)c(OC)c2)s1	4.4	-8	0.5	1	.	1.4	14	.
Cc1ccc(CNC(=O)CSc2nc(N3CCCCC3)nc(N3CCCCC3)n2)cc1	-0.2	22	0.3	-9	5%	-1.0	-2	.
COc1ccc(Nc2nc(CC(C)=O)ns2)cc1	0.2	-3	0.2	0	-10%	-3.6	-1	.
COc1cc(CNCc2cccs2)ccc1OCc1ccccc1	0.4	17	-2.0	22	8%	-1.4	-30	14
COc1ccc(OC)c(S(=O)(=O)N2CCC(C(=O)N3CCCC3)CC2)c1	4.1	3	0.4	4	.	-2.2	4	-1.8
COC(=O)c1ccc2c(=O)n(CCN3CCOCC3)c(SCC(=O)Nc3cccc(OC)c3)nc2c1	?	-5	0.7	-3	.	-2.6	-5	0.0
CCC(c1nnc(SCCNCCO)n1CCN1CCOCC1)N(C)C (stereo not given)	?	-9	1.0	0	-2%	0.7	-8	.
COc1cc(CC(=O)N/N=C/c2ccccc2)c([N+](=O)[O-])cc1OC	1.2	2	0.3	-6	.	-0.5	0	.
Remaining list, next part:
SMILES	RanGTP-Imp inh	T cruzi repl	A1 inh	Beta cell apopt	Vif A3G	LANA-H2B inh	Calb FLC	AF4-AF9 inh
c1ccc(NC2=NCCN2CCCC2CCCC2)cc1	.	.	-0.3	0	.	-1.0	.	3.4
O=C(N/N=C/c1cccc([N+](=O)[O-])c1)c1cc(-c2ccc3c(c2)OCO3)n[nH]1	2.0	15	0.5	50	24%	-2.2	6	.
O=S(=O)(c1ccc2c(c1)OCCO2)N1CCC(O)(c2ccc(Cl)cc2)CC1	0.4	-13	1.7	2	7%	-3.2	-16	.
CC(=O)c1ccc(-n2c(-c3cc(-c4ccsc4)n[nH]3)n[nH]c2=S)cc1	0.6	16	0.7	6	-2%	-1.2	-3	-5.2
Cc1cccc(N2CCN(C(=O)C3CCN(S(=O)(=O)c4c(C)noc4C)CC3)CC2)c1C	6.4	-6	-0.8	8	0%	-2.6	-1	0.9
O=C(COC(=O)c1cccc(S(=O)(=O)N2CCc3ccccc32)c1)Nc1ccc(Cl)cn1	2.3	-18	1.3	-7	.	-3.2	23	3.1
Oc1[nH]c2ccc(Br)cc2c1N=NC(=S)NCC1CCCO1 (stereo not given)	-1.4	60*	0.1	17	.	-0.9	31	12
O=C(Nc1cccc(S(=O)(=O)N2CCCCCC2)c1)c1ccc2ccccc2n1	0.1	26	1.0	-3	7%	0.9	6	1.7
O=[N+]([O-])c1ccc(NCCCNS(=O)(=O)c2ccc(Cl)cc2)c(Cl)c1	1.2	2	0.2	18	76%	1.1	-5	.
O=C(CSc1nc(-c2ccccc2)cc(=O)[nH]1)N1CCc2ccccc21	.	.	1.5	6	-11%	7.6	.	.
O=S(=O)(c1cccc2nonc12)N1CCN(c2ccc(F)cc2)CC1	7.2	-8	0.3	-1	.	11	-3	-0.2
COC(=O)C1=C(C)NC(C)=C(C(=O)OC)C1c1ccc(-c2cccc([N+](=O)[O-])c2)o1	-2.3	43	0.0	-9	?	1.3	-5	1.8
O=C(NC1CCN(C(=O)N2c3ccccc3Sc3ccccc32)CC1)c1ccccc1F	-4.5	32	1.2	.	-4%	-7.0	44	7.6
O=C(COC(=O)CCc1nc2ccccc2c(=O)[nH]1)NC(c1ccccc1)c1ccccc1	4.6	-4	1.6	-2	5%	-1.3	-2	-0.7
